Beta cell apopt – blocks beta cell apoptosis. INS-1E cytokine-induced death, ATP luminescence, 48 h; percent of positive-control rescue, neutral wells zero. protection from apoptosis, % (test concentration not listed). 0.8% of 300,000 active. AID 435005;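 active = all replicates at 75% or more, or half of them and the mean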;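 also: 0% = cytokine-treated negative control wells and 100% = positive control rescue; higher means more ATP so stronger rescue from cytokine killing; wells of about 40 µL received 100 nL stock; the first replicate is given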
MLL AF4-AF9 inh – inhibitors of human MLL-AF4/AF9 interaction | P42568 | AlphaScreen, biotin-AF4 peptide binding to FLAG-AF9 | inhibition, % at 10 µM | 0.47% of 350,000 active;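 active = every replicate reaching a set inhibition limit, whatever the replicate mean, cut at about 25% in these data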;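 also: 0% = plate neutral control median and 100% = total signal loss; the record names both 10 and 1 µM as test concentration; the first replicate is given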
Target sequence (P42568 whole entry, looked up): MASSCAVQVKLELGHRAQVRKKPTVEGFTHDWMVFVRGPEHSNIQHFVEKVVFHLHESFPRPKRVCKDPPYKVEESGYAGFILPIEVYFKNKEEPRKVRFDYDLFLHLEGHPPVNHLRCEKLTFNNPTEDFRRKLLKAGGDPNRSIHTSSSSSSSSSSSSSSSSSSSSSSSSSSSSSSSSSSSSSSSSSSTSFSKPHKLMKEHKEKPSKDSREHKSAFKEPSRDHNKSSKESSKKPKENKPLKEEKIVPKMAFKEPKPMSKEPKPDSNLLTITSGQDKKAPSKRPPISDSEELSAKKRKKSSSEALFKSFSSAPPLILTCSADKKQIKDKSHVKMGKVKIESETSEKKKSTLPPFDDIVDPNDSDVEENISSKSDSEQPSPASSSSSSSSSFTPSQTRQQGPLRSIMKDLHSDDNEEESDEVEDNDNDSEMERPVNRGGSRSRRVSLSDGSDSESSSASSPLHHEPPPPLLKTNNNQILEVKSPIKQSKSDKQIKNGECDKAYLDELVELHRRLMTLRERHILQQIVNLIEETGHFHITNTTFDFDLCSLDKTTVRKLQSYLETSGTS
Ecoli growth – E. coli growth inhibition. Escherichia coli growth, OD600, 23 h; hits give low values. OD600 absorbance (no concentration beside the values). 0.21% of 330,000 active. AID 1053175;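 active = OD600 absorbance below the run mean of sample wells minus 3.6 SD, in any replicate, cut at about 0.56 in these data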;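 also: stock transfer was 300 nL into about 60 µL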
UCH37 inh – inhibitors of human deubiquitinating enzyme UCH37; inhibition, % (test concentration not listed); Q9Y5K5; purified proteasome/UCH37, Ub-AMC cleavage fluorescence; 0.33% of 330,000 active; AID 588478;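 active = mean of two replicates above 20%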;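 also: 0% = compound-free wells with enzyme and 100% = wells lacking proteasome; stock transfer was 100 nL into about 20 µL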
Target sequence (Q9Y5K5 whole entry, looked up): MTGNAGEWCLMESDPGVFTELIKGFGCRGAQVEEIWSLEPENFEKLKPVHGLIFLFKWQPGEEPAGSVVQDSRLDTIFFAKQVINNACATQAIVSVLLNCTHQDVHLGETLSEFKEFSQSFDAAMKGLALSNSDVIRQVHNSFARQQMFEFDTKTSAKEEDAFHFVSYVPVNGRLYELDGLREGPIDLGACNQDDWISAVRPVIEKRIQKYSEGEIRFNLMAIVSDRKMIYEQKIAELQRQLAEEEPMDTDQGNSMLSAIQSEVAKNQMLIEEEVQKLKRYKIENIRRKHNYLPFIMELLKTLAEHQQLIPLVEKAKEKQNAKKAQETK
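Material: human UCH37 enzyme supplied as purified proteasome complex / Amount: 0.15 nM proteasome as dispensed / Buffer or medium: pH 7.4 Tris-HCl (50 mM) with ovalbumin, ATP-MgCl2, DTT / Times: preincubation 30 min, reaction 25 min, room temperature / Technique: AMC fluorescence from Ub-AMC cleavage, excitation 355 nm, emission 460 nm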
Ecoli rRNA inh – inhibits bacterial ribosomal RNA function over humanized ribosomes. E. coli WT GFP vs humanized-ribosome RFP mutants, fluorescence, 24 h; hits give low values; DMSO median 0, no signal -100. GFP signal change (wild-type ribosome), % (no concentration beside the values). 1.6% of 350,000 active. AID 720706;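 active = significant combined selectivity score with lowered wild-type GFP, culture density cut under 30%, mutant RFP and density less affected; inactive = any of these conditions unmet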; also: one replicate is shown; some compounds called inactive have numbers as strong as hits
Bfl-1 A1 inh – inhibitors of the anti-apoptotic protein A1, read as caspase activation; MEF A1-2A-BIM cells, Caspase-Glo 3/7 luminescence, 3 h; percent of clofoctol response, vehicle zero; caspase activation, % (no concentration beside the values); 0.066% of 330,000 active; AID 2462;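 active = over half of replicate activation scores above 10%, or exactly half above 10 with the replicate mean above 10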;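 also: wells of about 30 µL received 50 nL stock; many hits fall short of the cut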
FGF22 binding – binders of recombinant human FGF22 by thermal shift. Q9HCT0. SYPRO orange fluorescence; percent of sucrose octasulfate shift, DMSO zero. calls only at 9.99 µM. 1.5% of 340,000 active. AID 651658;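 active = melting point raised past a set limit in the mean and every replicate; three in four hits are not shown here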
Target sequence (Q9HCT0 whole entry, looked up): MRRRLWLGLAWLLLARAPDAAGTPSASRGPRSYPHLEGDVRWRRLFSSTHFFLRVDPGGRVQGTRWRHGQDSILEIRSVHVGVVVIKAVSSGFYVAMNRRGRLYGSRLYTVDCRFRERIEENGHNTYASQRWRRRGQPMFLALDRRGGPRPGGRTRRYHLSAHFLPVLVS
T cruzi repl – T. cruzi replication inhibition | T. cruzi beta-gal in NIH3T3, luminescence, 90 h | inhibition, % (concentration not given with the values) | 1.4% of 300,000 active;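 active = mean inhibition across valid replicates above about 55%, limit read from the data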;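 also: signal also drops with host cell toxicity which is not excluded here; 0% = plate median of DMSO wells and 100% = zero luminescence signal; higher percent means less beta-gal luminescence so fewer parasites; stock transfer was 50 nL into about 50 µL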
Ecoli rRNA inh OD600 – also measured in Ecoli rRNA inh; calls as there; OD600 change, %; measured here: OD600 growth;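 optical density of the mix in the first replicate; 0 = DMSO median and -100 = no signal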
Ecoli rRNA inh RFP – also measured in Ecoli rRNA inh; calls as there; RFP signal change, %; measured here: RFP humanized mutant strains;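 first replicate; 0 = DMSO median and -100 = no signal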
* marks the source's active call; other numbers are inactive results; i = inactive; x = no result given; + = active, no number; & = joins results of further samples. An excerpt (hit frequency here may not be typical).

SMILES | Beta cell apopt | MLL AF4-AF9 inh | Ecoli growth | UCH37 inh | Ecoli rRNA inh | Ecoli rRNA inh OD600 | Ecoli rRNA inh RFP | Bfl-1 A1 inh | FGF22 binding | T cruzi repl
CCOC(=O)c1ccc(-c2c(-c3cc(OC)c(OC)c(OC)c3)noc2C)cc1F | 1 | x | 0.7 | 2.7 | -9 | -8 | 1.0 | 1.0 | i | 27
COC(=O)c1cnc(Oc2ccc(NC(=O)NC(=O)c3c(OC)cccc3OC)cc2)cc1C(F)(F)F | 33 | -0.4 | 0.71 | 0.1 | 19 | 9 | -0.1 | 1.2 | x | 29
COc1ccc(OCCC(=O)OCC(=O)NC(=O)NC(C)C)cc1 | 0 | x | 0.74 | 0.2 | x | x | x | -1.0 | x | -5
CCOc1ccc(NC(=O)CC2C(=O)N(CC)C(=S)N2NC(=O)c2ccncc2)cc1 (stereo not given) | x | -1.2 | 0.64 | 1.5 | x | x | x | 0.1 | i | -7
CS(=O)(=O)Oc1ccc(Br)c2cccnc12 | -7 | -5.7 | 0.61 | 2.8 | 1 | 4 | 4.2 | -0.2 | i | -33
CCCNC(=O)NC(=O)CSc1nncs1 | -7 | 1.5 | 0.69 | -1.7 | 12 | 12 | 0.9 | -0.5 | x | -5
CC12CCC(C(=O)NC3CCCC3)(CC1=O)C2(C)C (stereo not given) | -2 | x | 0.67 | 2.3 | x | x | x | 0.6 | x | 7
CC(=O)Nc1cccc(NC(=S)Nc2cccc(Cl)c2Cl)c1 | -5 | -2.5 | 0.65 | 3.5 | 11 | 9 | -3.3 | -0.4 | i | -16
C[C@@H]1C[C@H]2[C@@H]3C[C@H](F)C4=CC(=O)C=C[C@]4(C)[C@@]3(Cl)[C@@H](O)C[C@]2(C)[C@H]1C(=O)COC(=O)C(C)(C)C | 5 | -2.5 | x | 1.8 | 12 | 11 | 3.3 | 0.7 | i | x
Cc1ccc(C(=O)COC(=O)c2c(C)cc(=O)oc2C)cc1[N+](=O)[O-] | 0 | x | 0.63 | 1.3 | x | x | x | 0.6 | x | -10
O=C(NCc1nnc(SCC(=O)N2CCCC2)o1)c1c(F)cccc1F | -7 | -1.5 | 0.7 | -0.8 | 10 | 11 | 0.1 | 0.1 | i | -7
COc1ccccc1NC(=O)N1CCN(C(=O)c2ccco2)CC1 | 2 | -2.9 | x | x | 4 | 13 | -3.1 | 0.3 | i | -11
COc1cc(F)ccc1S(=O)(=O)N1CCN(C23CC4CC(CC(C4)C2)C3)CC1 | 2 | x | 0.67 | 1.7 | x | x | x | -0.2 | x | -4
Cc1ccc(-c2nnc3c(C(F)(F)F)nc4ccccc4n23)cc1 | 4 | x | 0.73 | -123 | x | x | x | -0.8 | x | -1
COc1ccc2cc(C(C)C(=O)Nc3cccc(S(=O)(=O)N(C)C)c3)ccc2c1 (stereo not given) | x | -1.8 | 0.68 | -1.6 | -3 | 5 | 6.5 | 0.6 | i | 15
CN1CCN(c2nc(-c3ccc(Cl)s3)cs2)CC1 | 5 | 14 | 0.66 | 1.8 | 10 | 5 | 4.1 | 0.4 | i | 32
CC(C)(C)c1ccc(C(=O)OCCN2CCCCC2)cc1 | -5 | -8.6 | 0.64 | 4.9 | 4 | 6 | -0.1 | -0.1 | i | 17
Cc1ccc(S(=O)(=O)c2cnc(-c3ccccc3)nc2N2CCN(C)CC2)cc1 | -3 | 20 | 0.65 | 2.9 | -48 | -77 | -20 | 1.6 | i | 19
CCc1cc2c(N3CCCCC3)ncnc2s1 | -3 | x | 0.72 | 3.7 | x | x | x | -0.5 | x | -1
COc1ccc(C(=O)O/N=C(\N)c2ccc(Cl)cc2)cc1 | 4 | 0.1 | 0.66 | -0.6 | 8 | 15 | 3.8 | -4.2 | i | -1
C/C(=N\Nc1nc2ccccc2s1)c1cccs1 | 9 | 13 | x | x | -36 | -60 | -4.8 | -5.5 | i | 45
Cn1c(=O)n(-c2ccc(Cl)cc2)c(=O)c2c3c(sc21)COC(C)(C)C3 | -7 | x | 0.7 | 5.9 | x | x | x | -0.4 | x | -3
CSc1nc(O)c(C(c2ccc(F)cc2)c2c(O)nc(SC)[nH]c2=O)c(=O)[nH]1 | x | -1.4 | 0.65 | 7.8 | 18 | 17 | 1.1 | -0.4 | i | -8
CCOC(=O)CSc1nnc(-c2ccc(OC)cc2)n1CC | -3 | x | 0.73 | 0.3 | x | x | x | -0.5 | x | -14
O=C(O)c1cc(Nc2cc(Cl)c3nonc3c2[N+](=O)[O-])ccc1O | -2 | -0.8 | 0.63 | 18 | -11 | 20 | 5.0 | 0.2 | + | -7
O=C(c1ccco1)N1CCN(Cc2cccc(F)c2)CC1 | -1 | x | 0.72 | 2.5 | x | x | x | -0.2 | x | -2
Cc1ccc(CN2CCN(Cc3ccncc3)CC2CCO)o1 (stereo not given) | -1 | -5.1 | 0.66 | 0.4 | 1 | 6 | 1.3 | -0.5 | i | -15
CCOC(=O)Cc1c(C)nc(SC)[nH]c1=O | 2 | -1.7 | 0.7 | 1.9 | 6 | 12 | -2.3 | 0.2 | i | 5
O=C(N/C(=C/c1ccco1)C(=O)N1CCCC1)c1cccs1 | -3 | x | 0.7 | 8.2 | x | x | x | 0.5 | x | -5
COC(=O)CSc1nnc(NC(=O)C2CC(=O)N(c3ccc(F)cc3)C2)s1 (stereo not given) | 0 | -1.1 | 0.71 | 1.7 | 8 | 0 | -1.0 | 0.0 | i | -11
COc1ccc(CN2CC(C(=O)NCCC(C)C)CC2=O)cc1 (stereo not given) | -2 | 1.3 | 0.71 | 0.5 | 15 | 10 | 1.6 | 0.3 | i | -24
C=C(C)Cn1c(SCCN2CCOCC2)nc2c1c(=O)[nH]c(=O)n2C | -3 | x | 0.69 | 2.4 | x | x | x | 1.1 | x | 1
CCCn1nnc(NC(=O)c2ccc(Br)o2)n1 | -8 | x | 0.71 | 3.0 | x | x | x | -0.2 | x | -19
CN(c1cccc(NS(=O)(=O)c2ccccc2)c1)S(C)(=O)=O | 1 | -0.4 | 0.7 | 4.4 | 4 | -11 | -8.5 | 0.6 | i | 0
O=C(NC1CCCCC1)C1CCN(c2cnccn2)CC1 | -4 | x | 0.66 | -7.3 | x | x | x | 1.0 | x | -10
COc1ccc(-c2cc(C)no2)cc1S(=O)(=O)Nc1ccccc1 | -3 | -14 | 0.68 | 1.9 | -1 | -6 | 7.1 | -1.8 | i | 6
O=S(=O)(c1ccccc1)[C@@]1(c2ccccc2)C[C@@H]2ON=C(c3cccc(Br)c3)[C@@H]2C1 | 5 | -3.3 | x | -0.7 | -8 | -8 | -9.2 | -1.3 | i | -9
COc1ccc(NC(=O)CN(C)CC(=O)N(CC(C)C)c2c(N)n(CC(C)C)c(=O)[nH]c2=O)cc1 | 2 | -6.4 | 0.72 | -6.1 | 8 | 12 | -1.6 | 1.2 | i | x
CC(C)(C)NC(=O)NC(=O)COC(=O)Cc1c(F)cccc1Cl | -5 | -0.9 | 0.71 | 0.0 | -13 | -5 | 3.4 | -0.4 | i | 2
CCn1c(=O)c2cc(C(=O)N(C)c3ccccc3F)sc2c2ccccc21 | 14 | 5.7 | 0.68 | 2.2 | 6 | -9 | 7.2 | 0.2 | i | 69*
CCC(C)NC(=O)CCc1nc2ccccc2n1-c1ccccc1 (stereo not given) | 1 | -28 | 0.66 | 0.4 | 4 | -1 | -1.6 | 0.2 | i | -12
Cc1cc(C)c2nc(NC(=O)c3ccc4c(c3)OCO4)sc2c1 | 5 | x | 0.72 | -36 | x | x | x | -0.1 | x | -8
Cc1nc2ccccc2n1CC(=O)NC(C)C1CC2CCC1C2 (stereo not given) | 30 | 0.7 | 0.69 | 6.6 | -14 | -24 | 0.1 | 0.1 | i | 32
Cc1ccc(-c2nc(N)sc2-c2ccc(C)cc2)cc1 | x | 14 | 0.64 | -7.3 | -28 | -64 | 4.2 | x | i | 10
C[C@H](CO)N1C[C@H](C)[C@@H](CN(C)C(=O)NC2CCCCC2)Oc2ccc(NC(=O)C3CC3)cc2C1=O | x | -2.9&-3.6 | x | 0.4 | 0&10 | -2&22 | -3.9&1.9 | x | i | x
C=CC#CC1(O)CC(C)N(C)CC1C (stereo not given) | -3 | -0.8 | 0.69 | 0.8 | -4 | 4 | 0.1 | -1.0 | i | -6
O=C(O)c1cccc2[nH]c(C(F)(F)F)nc12 | -5 | x | 0.7 | -0.2 | x | x | x | 0.4 | x | 36
Cc1cccc(NC(=O)COC(=O)[C@@H]2CCCN2C(=O)c2cccs2)c1 | -20 | 1.3 | 0.65 | 1.5 | x | x | x | 0.7 | i | x

An excerpt from above in order of the Ecoli rRNA inh OD600 value, low to high:
Molecule	Ecoli rRNA inh OD600
Cc1ccc(-c2nc(N)sc2-c2ccc(C)cc2)cc1	-64
Cc1nc2ccccc2n1CC(=O)NC(C)C1CC2CCC1C2 (stereo not given)	-24
COc1ccc(NC(=O)CN(C)CC(=O)N(CC(C)C)c2c(N)n(CC(C)C)c(=O)[nH]c2=O)cc1	12

4 entries from above, as tab-separated lines.
Molecule	Beta cell apopt	MLL AF4-AF9 inh	Ecoli growth	UCH37 inh	Ecoli rRNA inh	Ecoli rRNA inh OD600	Ecoli rRNA inh RFP	Bfl-1 A1 inh	FGF22 binding	T cruzi repl
COC(=O)CSc1nnc(NC(=O)C2CC(=O)N(c3ccc(F)cc3)C2)s1 (stereo not given)	0	-1.1	0.71	1.7	8	0	-1.0	0.0	i	-11
COc1ccc(CN2CC(C(=O)NCCC(C)C)CC2=O)cc1 (stereo not given)	-2	1.3	0.71	0.5	15	10	1.6	0.3	i	-24
C=C(C)Cn1c(SCCN2CCOCC2)nc2c1c(=O)[nH]c(=O)n2C	-3	x	0.69	2.4	x	x	x	1.1	x	1
CCCn1nnc(NC(=O)c2ccc(Br)o2)n1	-8	x	0.71	3.0	x	x	x	-0.2	x	-19

Later entries
SMILES | Beta cell apopt | MLL AF4-AF9 inh | Ecoli growth | UCH37 inh | Ecoli rRNA inh | Ecoli rRNA inh OD600 | Ecoli rRNA inh RFP | Bfl-1 A1 inh | FGF22 binding | T cruzi repl
N#CCc1ccc(NS(=O)(=O)c2ccc(N3CCCC3=O)cc2)cc1 | -2 | -0.9 | 0.68 | 2.2 | 6 | 10 | 0.2 | 0.2 | i | -5
COc1cc(C(=O)Nc2ccc(N3CCCS3(=O)=O)cc2)c([N+](=O)[O-])cc1OC | -5 | 0.4 | 0.68 | 3.0 | 9 | 6 | 0.9 | -0.4 | i | -11
Cc1cccn2c(=O)c(C=O)c(Cl)nc12 | -10 | 3.2 | 0.7 | -49 | 27 | 12 | 11 | 0.2 | i | -14
Cc1[nH]nc(S(=O)CC(=O)O)c1[N+](=O)[O-] (stereo not given) | 1 | -4.7 | 0.71 | 5.5 | 16 | 18 | 9.0 | -0.9 | i | -8
